EPAC2 antag: human EPAC2 antagonism, validation; Q8WZA2; EPAC2 Rap1B BODIPY-GDP exchange, fluorescence; Potency, µM (doses to about 112 µM), for inactives: at the highest dose activity, negative = inhibition, most hits filed as inhibitors; actives 1.7% (n = 16,000); AID 1645886; active = well fitted inhibition curve with a large enough effect; inconclusive = small, poorly fitted or top-dose-only effect; inactive = no such curve, though single readings can be large or run the other way;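 also: 100% = activation by cAMP agonist control; nearly all actives have a fitted effect of over 40% in size; the record reuses the description of the EPAC1 agonist screen; inactives centre near -10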
Target sequence (Q8WZA2 whole entry, looked up): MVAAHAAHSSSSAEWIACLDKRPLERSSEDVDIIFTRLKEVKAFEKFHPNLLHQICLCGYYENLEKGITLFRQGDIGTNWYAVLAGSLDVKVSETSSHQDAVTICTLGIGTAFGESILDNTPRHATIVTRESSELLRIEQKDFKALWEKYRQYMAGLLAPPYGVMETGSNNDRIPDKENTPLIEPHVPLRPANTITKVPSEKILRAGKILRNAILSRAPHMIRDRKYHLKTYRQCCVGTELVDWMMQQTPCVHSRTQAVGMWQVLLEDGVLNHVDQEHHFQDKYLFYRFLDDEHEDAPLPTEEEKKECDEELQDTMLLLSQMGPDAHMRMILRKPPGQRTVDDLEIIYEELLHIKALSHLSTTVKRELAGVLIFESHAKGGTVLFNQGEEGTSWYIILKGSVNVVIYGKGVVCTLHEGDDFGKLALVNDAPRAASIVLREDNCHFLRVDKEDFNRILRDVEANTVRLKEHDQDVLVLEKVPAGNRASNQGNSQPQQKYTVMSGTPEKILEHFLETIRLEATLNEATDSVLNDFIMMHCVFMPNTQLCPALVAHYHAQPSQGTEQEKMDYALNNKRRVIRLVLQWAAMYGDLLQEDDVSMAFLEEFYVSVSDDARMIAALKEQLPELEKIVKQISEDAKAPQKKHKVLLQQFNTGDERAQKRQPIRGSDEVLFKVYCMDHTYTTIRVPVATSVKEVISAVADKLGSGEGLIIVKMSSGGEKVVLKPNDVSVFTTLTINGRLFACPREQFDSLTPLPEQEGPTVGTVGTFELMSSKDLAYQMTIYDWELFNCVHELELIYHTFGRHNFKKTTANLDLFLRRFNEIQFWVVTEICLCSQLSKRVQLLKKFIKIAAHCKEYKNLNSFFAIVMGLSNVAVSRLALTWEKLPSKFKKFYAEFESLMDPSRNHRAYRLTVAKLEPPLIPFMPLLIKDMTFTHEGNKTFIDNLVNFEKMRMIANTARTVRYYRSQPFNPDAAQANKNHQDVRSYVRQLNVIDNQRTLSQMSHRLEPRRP
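Normalized against a 6.5 mM cAMP agonist control, compounds were tested on 100 nM EPAC2 exchanging Rap1B-bound BODIPY-GDP (250 nM) for 50 uM GDP. Fluorescence drop (ex 480, em 540 nm) was tracked at room temperature over 30 min at 5-min intervals.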
* hit, by the source's call; ? = inconclusive; & = joins results of further samples; [ ] = remark or other dose. Potency is read from the fitted curve at half-maximal effect. Not all compounds are listed. The share of hits here may be higher or lower than overall.

SMILES	EPAC2 antag
CC(C)[C@H](N)C(=O)OCC(CO)OCn1cnc2c(=O)[nH]c(N)nc21 (stereo partly specified)	?
COc1ccccc1CNc1nc(-c2ccc3c(c2)OCO3)nc2ccccc12	-23%
CC(=O)OC1CC(OC(C)=O)[C@]2(C)C(CC(OC(C)=O)[C@]3(C)C2CC[C@@]2(C)C(c4ccoc4)OC(=O)C4O[C@]432)C1(C)C (stereo partly specified)	-15%
C[C@@H](O)[C@H]1C(=O)N2C(C(=O)O)=C(S[C@@H]3CN[C@H](CNS(N)(=O)=O)C3)[C@H](C)[C@H]12	33%[activator]
CC(N=C(NC#N)Nc1ccncc1)C(C)(C)C (stereo unspecified)	-1%
CC(=O)N1CCC2(CCN(Cc3cc(C(F)(F)F)cc(C(F)(F)F)c3)CC2)CC1	?
CC(C)Cc1cc(C(=O)NCC2Cc3cc(F)cc(-c4ccccn4)c3O2)no1 (stereo unspecified)	-33%
Clc1nccc2c1ccc1ccccc12	0%
COc1cccc(-c2ccnc(-n3ncc(C(=O)NCc4cccnc4)c3C3CC3)n2)c1	6%
Cc1ccc(C(=O)Cn2c3c(sc2=N)CCCC3)cc1	?
CCNc1ncc2nc(-c3cn(C)c4ccccc34)c(=O)n(Cc3ccc(F)cc3)c2n1	-5%
COc1ccccc1CN1CC[C@@]2(CCCN(S(C)(=O)=O)C2)C1	-16%
CC(C)[C@H]1CC[C@@H](C)C[C@H]1O	-5%
COc1ccc(C2Sc3ccccc3N(CCN(C)C)C(=O)C2OC(C)=O)cc1 (stereo unspecified)	-1%
Cc1cnc(C(=O)NCc2c(C)ncc3c2CCN(C(=O)/C=C/c2cccs2)C3)cn1	?
COc1ccccc1-c1ccnc(-n2ncc(C(=O)NC(C)(C)CO)c2C2CC2)n1	-6%
N#Cc1cccc(-c2nc3cnc(Nc4ccccc4)nc3n(C[C@H]3CCCO3)c2=O)c1	-25%
CN(C)C(=O)c1ccc(-c2nc(N3CCOCC3)c3ccccc3n2)cc1	-13%
Cc1cc2c(cc1C)N[C@]1(C[C@H]3CCCC(=O)N4CC[C@@H](C1)[C@@H]34)C(=Nc1ccccc1C)N2	?
Cc1c(C(=O)NCCC2CCCN2C)cnn1-c1nccc(-c2ccccc2F)n1 (stereo unspecified)	10%
CN(C)c1ncc2nc(-c3cc(F)cc(F)c3)c(=O)n(C[C@H]3CCCO3)c2n1	0%
CC(C)CN1CCCC2(CCN(C(=O)c3cccn3C)CC2)C1	-24%
Nc1nc(N)nc(-c2cc(Cl)ccc2Cl)n1	2%
CN1C(CSCC(F)(F)F)Nc2cc(Cl)c(S(N)(=O)=O)cc2S1(=O)=O (stereo unspecified)	20%
CC(C)C1=CC2=CCC3[C@@](C)(CCC[C@@]3(C)C(=O)O)C2CC1 (stereo partly specified)	-26%

By substructure, the entries above containing a CF3 group (two)
SMILES	EPAC2 antag
CC(=O)N1CCC2(CCN(Cc3cc(C(F)(F)F)cc(C(F)(F)F)c3)CC2)CC1	?
CN1C(CSCC(F)(F)F)Nc2cc(Cl)c(S(N)(=O)=O)cc2S1(=O)=O (stereo unspecified)	20%

Continuation.
SMILES	EPAC2 antag
CC(C)CN1CCC(=O)N([C@H](CO)c2ccccc2)CC1	7%
O=C(NCCc1nnc2n1CCN(CC1CC=CCC1)CC2)c1ccc(F)cc1 (stereo unspecified)	-4%
CCOC(=O)C12CC1/C(=N/O)c1ccccc1O2 (stereo unspecified)	-13%
CCC(N)(C(=O)O)c1ccc(C(=O)O)cc1 (stereo unspecified)	1%
Cn1c(=O)c(-c2ccc(F)c(F)c2)nc2cncnc21	-11%
CCCc1c(OCCCOc2ccc(OCC(=O)O)cc2)ccc(C(C)=O)c1O	?
CC1=C(C(=O)O)N2C(=O)[C@@H](NC(=O)C(N)C3=CCC=CC3)[C@H]2SC1 (stereo partly specified)	?
COc1ncc2ncc(=O)n(CCc3ccccc3)c2n1	15%
O=C(c1ccccc1)[C@@H]1O[C@H]1c1ccc(-c2ccccc2)cc1	-24%
Cn1c(C2CCC2)nc2cc(C(=O)N3CCOc4ccccc4C3)cc(NC(=O)C3CCCO3)c21 (stereo unspecified)	-30%
COC(=O)C1=CO[C@@H](O)[C@@H]2C(CO)=CC[C@H]12	4%
COCCn1c(=O)c(-c2ccc(F)c(F)c2)nc2cncnc21	?
CCCCC[C@H](CC(=O)NO)C(=O)N[C@H](C(=O)N1CCC[C@H]1CO)C(C)C	-26%
CN(C)CCCO[C@@H]1[C@H]2OC(C)(C)O[C@H]2O[C@@H]1C(O)CO (stereo partly specified)	15%
COc1cc(NCCCC(C)N)c2ncccc2c1 (stereo unspecified)	16%
O=C(O)c1cccs1	12%
COc1cc2c(CCNC(C)=O)c[nH]c2cc1O	-2%
O=C(O[C@@H]1Cc2c(O)cc(O)cc2OC1c1ccc(O)c(O)c1)c1cc(O)c(O)c(O)c1 (stereo partly specified)	-4%
Nc1nc(=S)c2ncn([C@@H]3O[C@H](CO)[C@@H](O)[C@H]3O)c2[nH]1	33%[activator]
OC[C@@H](O)[C@@H](O)[C@H](O)[C@H](O)CO	-9%
Nc1nc(N)c2nc(CNc3ccc(C(=O)NC(CCC(=O)O)C(=O)O)cc3)cnc2n1 (stereo unspecified)	7%
CN(C)C(=O)c1ccc(-c2nccc(Nc3ccc(F)cc3)n2)cc1	-6%
CC(C)CN1CC2(CCN(C(=O)c3cccc(F)c3)CC2)C1	-33%
COC(=O)c1ccccc1-c1cc(C)cc2c1OC(CNC(=O)C1CCOC1)C2 (stereo unspecified)	?
Cc1c(-c2ccc(O)cc2)nn(-c2ccc(O)cc2)c1-c1ccc(OCCN2CCCCC2)cc1	?

In another format: 4 of the compounds above
| Structure | EPAC2 antag |
| --- | --- |
| CC(C)Cc1cc(C(=O)NCC2Cc3cc(F)cc(-c4ccccn4)c3O2)no1 (stereo unspecified) | -33% |
| OC[C@@H](O)[C@@H](O)[C@H](O)[C@H](O)CO | -9% |
| CC(C)[C@H](N)C(=O)OCC(CO)OCn1cnc2c(=O)[nH]c(N)nc21 (stereo partly specified) | ? |
| COc1cccc(-c2ccnc(-n3ncc(C(=O)NCc4cccnc4)c3C3CC3)n2)c1 | 6% |

Going on with the list.
SMILES	EPAC2 antag
CCOc1ccc(NS(=O)(=O)c2ccc(N)cc2)nn1	11%
CCNc1ncc2nc(-c3ccc(F)cc3)c(=O)n(-c3ccccc3)c2n1	0%
COc1ccc(NC2=Nc3ccccc3N[C@@]23C[C@H]2CCCC(=O)N4CC[C@@H](C3)[C@@H]24)cc1	-6%
Cc1ccccc1CNc1ncnc2c1ncn2[C@@H]1O[C@H](CO)[C@@H](O)[C@H]1O	8%
CN(C)CCC(c1ccc(Br)cc1)c1ccccn1 (stereo unspecified)	-26%&-13%
COCC(=O)Nc1cc(C(=O)N2CCC(c3ccccc3)CC2)cc2nc(-c3ccccc3)n(C)c12	?
COc1ccccc1CNC(=O)c1cnn(-c2nccc(-c3cccs3)n2)c1C	-17%
COc1ccccc1CNc1nc(-c2c(C)noc2C)nc2ccccc12	?
COc1cccc(CNC(=O)c2c(OC)cc(=O)n3c2CCN(C(=O)C2=C(C)OCCO2)CC3)c1	-12%
CCNc1ncc2ncc(=O)n(C[C@H]3CCCO3)c2n1	-8%
NCCC1CCCC(CCN)N1 (stereo unspecified)	-7%
CCN1CCN(c2cc3c(cc2F)c(=O)c(C(=O)O)cn3C2CC2)CC1	-16%
N#Cc1cccc(-c2cncnc2NCCc2cnc[nH]2)c1	-20%
Cc1ccc2ncc(C)c(/C=C/c3ccc(N(C)C)cc3)c2c1	-23%
CC(C)Cc1ccc([C@@H](C)C(=O)NS(C)(=O)=O)cc1	-15%
C[C@H](NC(=O)OC(C)(C)C)C(=O)c1ccco1	?
OC1C(O)C(O)C(O)C(O)C1O (stereo unspecified)	-9%
COc1cccc(Cn2c(=O)c(-c3cccs3)nc3cnc(Nc4ccccc4)nc32)c1	-19%
CCc1ccc(C=O)cc1	18%
COc1ccccc1CC(=N)N1C[C@@H]2C(=O)CCC(c3ccccc3)(c3ccccc3)[C@@H]2C1	?
C=CCOc1ccc(CC(=O)O)cc1Cl	?
CCCC1C(=O)N2C(N(C)C)=Nc3ccc(C)cc3N2C1=O (stereo unspecified)	-17%[56.6 µM]
COCc1c(C(=O)NC2CCCCCC2)cnn1-c1nccc(-c2cc(C)sc2C)n1	?
Cc1[nH]c2ccccc2c1/C=C/c1ccnc2ccccc12	-5%
CS(=O)(=O)N1CCC2(CCN(c3ccncc3)CC2)CC1	-8%

Nothing new here: entries from further up.
SMILES	EPAC2 antag
CCOc1ccc(NS(=O)(=O)c2ccc(N)cc2)nn1	11%
CCNc1ncc2nc(-c3ccc(F)cc3)c(=O)n(-c3ccccc3)c2n1	0%
COc1ccc(NC2=Nc3ccccc3N[C@@]23C[C@H]2CCCC(=O)N4CC[C@@H](C3)[C@@H]24)cc1	-6%

(further entries)
SMILES	EPAC2 antag
Cc1cc(C)cc(C(=O)NCCn2cc(C(=O)N3CCSCC3)nn2)c1	-27%
O=C(c1ccco1)N1CCC2(CC1)CN(c1ccccn1)C2	-25%
CCNc1ncc2nc(-c3cccs3)c(=O)n(C[C@H]3CCCO3)c2n1	3%
COc1cc(=O)n2c(c1C(=O)N(C)Cc1cscn1)CCN(C(=O)c1ccc(C)cc1C)CC2	2%
C[C@@H](O)[C@H]1C(=O)N2C(C(=O)O)=C([C@H]3CCCO3)S[C@H]12	-14%
C=C1C(=O)OC2C[C@@]3(C)CCCC(C)C3=CC12 (stereo partly specified)	?
COCC(=O)N1CCC[C@@]2(CCN(Cc3ccc(C#N)cc3)C2)C1	-16%
CC(C)[C@@H]1[C@H]2CC[C@H](C2)[C@H]1N	-22%
O=C1c2ccccc2CC[C@H]1CNCCc1ccc(O)cc1	-25%
N#Cc1cccc(-c2ccc3ncnc(NCc4ccccc4)c3c2)c1	-19%
CCOC(=O)c1c(C)[nH]c2ccc3c(c12)CN1CCc2cc(OC)ccc2[C@@H]1O3	-34%
C=CC1=C(C)C2=NC1=CC1=NC(=CC3=NC(=CC4=NC(=C2)C(C)=C4CCC(=O)O)C(CCC(=O)O)=C3C)C(C=C)=C1C.[Zn]	-3%
COC(=O)c1cc(CNC(=O)c2cccc3ccccc23)cc(NC(=O)c2ccccc2OC)c1	-2%
c1ccc2c(c1)CCCN2	?
CC(=O)N1CCC2(CCCN(c3ncccn3)C2)CC1	-18%
Cc1nc2ccc(C(=O)N3CCc4c(cnc(C)c4CNC(=O)/C=C/c4cccs4)C3)cc2nc1C	-28%
COc1ccc2cccc(N3CCN(CCNC(=O)c4ccc(F)cc4)CC3)c2c1	?
COc1ccc2c(=O)c(OC)c(-c3ccccc3)oc2c1	11µM*
COc1ccccc1-c1nc(NCCNC(C)=O)c2ccccc2n1	-6%
Cc1ccc(SC[C@H](C)CN2CC[C@H](NC(=O)OCc3ccccc3)CCC2=O)cc1	-26%
CN(CCO)C(=O)c1cn(C2CCN(Cc3cccc4ccccc34)CC2)nn1	-1%
COc1ccc(O)c(CN2CCCN(c3nc(C)c4cc(C)c(C)cc4n3)CC2)c1	-13%
CC(=O)OC[C@H]1O[C@@H](n2ncc(=O)[nH]c2=O)[C@H](OC(C)=O)[C@@H]1OC(C)=O	6%
COc1ccc(-c2c(-c3ccc4c(c3)OCO4)noc2C)cn1	?
CC(C)OC(=O)C(C(=O)OC(C)C)=C1SC=CS1	?

Copied from the list.
EPAC2 antag with N#Cc1cccc(-c2nc3cnc(Nc4ccccc4)nc3n(C[C@H]3CCCO3)c2=O)c1 → -25%
EPAC2 antag with COC(=O)c1cc(CNC(=O)c2cccc3ccccc23)cc(NC(=O)c2ccccc2OC)c1 → -2%
EPAC2 antag with CCNc1ncc2ncc(=O)n(C[C@H]3CCCO3)c2n1 → -8%
EPAC2 antag with CN(C)c1ncc2nc(-c3cc(F)cc(F)c3)c(=O)n(C[C@H]3CCCO3)c2n1 → 0%

Next records:
SMILES	EPAC2 antag
COc1ccc(C(=O)N2CCC3(CCCN(c4ncccn4)C3)CC2)cc1	-22%
NC[C@H]1O[C@H](O[C@H]2[C@H](O)[C@@H](O[C@H]3O[C@H](CO)[C@@H](O)[C@H](N)[C@H]3O)[C@H](N)C[C@@H]2N)[C@H](N)[C@@H](O)[C@@H]1O	-18%&-17%
Cc1ccc2c(c1)ncc[n+]2CC(=O)c1ccc(F)cc1	-23%
Cc1cccc(Nc2ccccc2C(=O)O)c1C	?
CN(C)CCC(O)(c1ccccc1)c1ccccc1Cl (stereo unspecified)	-3%
O=C(c1cccc(F)c1)N1CCC2(CCCN(c3ccccc3)C2)CC1	?
Cc1cccc(CNC(=O)c2cnn(-c3ncc4c(n3)-c3ccccc3CC4)c2C2CC2)n1	-23%
COC(=O)N1CCC2(CCN(Cc3nccs3)CC2)CC1	-13%
O=C(C[n+]1cc(Br)cc2ccccc21)c1ccc(Br)cc1	10%
COc1ccc(CN2CCOc3ccc(CN4CCC(Oc5cccnc5)CC4)cc3C2)cc1	-11%
N=C(N)N	33%[activator]
CCC(NC(C)C)C(O)c1ccc(O)c(O)c1 (stereo unspecified)	4%&7%
O=C(Nc1cccc(F)c1)N1CC[C@@]2(CCCN(C(=O)c3cnccn3)C2)C1	-18%
COc1ncc2nc(-c3ccc(Cl)cc3)c(=O)n(-c3ccccc3)c2n1	-19%
COc1cccc(C(=O)NC(C)c2nnc3n2CCN(CC=C(C)C)CC3)c1 (stereo unspecified)	-24%
C[C@@H]1NC(=O)OC1c1ccco1 (stereo partly specified)	6%
CN(C)C1CCC(CC2CCc3ccccc32)CC1 (stereo unspecified)	-11%
CCCCCc1ccc(-c2cn(Cc3ccc(C)cc3)nn2)cc1	3%
